Assay outcomes deposited in PubChem by several laboratories.
LANA-H2A inh = blocks KSHV LANA binding to histone H2A/H2B; Q9QR71; cell-free LANA-H2A/H2B peptide, fluorescence polarization; inhibition, % (test concentration not listed); 320,000 compounds, 0.6% hits; AID 2629; in the data active = inhibition mostly above about 10%, no sharp cut-off; inactive = mostly below about 6.7%;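 note: stock transfer was 7.5 nL into about 10 µL; 0% = median of vehicle wells and 100% = median of positive control wells; one replicate is shown; the record names a cut of 25% in any replicate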
Target sequence (Q9QR71 whole entry, looked up): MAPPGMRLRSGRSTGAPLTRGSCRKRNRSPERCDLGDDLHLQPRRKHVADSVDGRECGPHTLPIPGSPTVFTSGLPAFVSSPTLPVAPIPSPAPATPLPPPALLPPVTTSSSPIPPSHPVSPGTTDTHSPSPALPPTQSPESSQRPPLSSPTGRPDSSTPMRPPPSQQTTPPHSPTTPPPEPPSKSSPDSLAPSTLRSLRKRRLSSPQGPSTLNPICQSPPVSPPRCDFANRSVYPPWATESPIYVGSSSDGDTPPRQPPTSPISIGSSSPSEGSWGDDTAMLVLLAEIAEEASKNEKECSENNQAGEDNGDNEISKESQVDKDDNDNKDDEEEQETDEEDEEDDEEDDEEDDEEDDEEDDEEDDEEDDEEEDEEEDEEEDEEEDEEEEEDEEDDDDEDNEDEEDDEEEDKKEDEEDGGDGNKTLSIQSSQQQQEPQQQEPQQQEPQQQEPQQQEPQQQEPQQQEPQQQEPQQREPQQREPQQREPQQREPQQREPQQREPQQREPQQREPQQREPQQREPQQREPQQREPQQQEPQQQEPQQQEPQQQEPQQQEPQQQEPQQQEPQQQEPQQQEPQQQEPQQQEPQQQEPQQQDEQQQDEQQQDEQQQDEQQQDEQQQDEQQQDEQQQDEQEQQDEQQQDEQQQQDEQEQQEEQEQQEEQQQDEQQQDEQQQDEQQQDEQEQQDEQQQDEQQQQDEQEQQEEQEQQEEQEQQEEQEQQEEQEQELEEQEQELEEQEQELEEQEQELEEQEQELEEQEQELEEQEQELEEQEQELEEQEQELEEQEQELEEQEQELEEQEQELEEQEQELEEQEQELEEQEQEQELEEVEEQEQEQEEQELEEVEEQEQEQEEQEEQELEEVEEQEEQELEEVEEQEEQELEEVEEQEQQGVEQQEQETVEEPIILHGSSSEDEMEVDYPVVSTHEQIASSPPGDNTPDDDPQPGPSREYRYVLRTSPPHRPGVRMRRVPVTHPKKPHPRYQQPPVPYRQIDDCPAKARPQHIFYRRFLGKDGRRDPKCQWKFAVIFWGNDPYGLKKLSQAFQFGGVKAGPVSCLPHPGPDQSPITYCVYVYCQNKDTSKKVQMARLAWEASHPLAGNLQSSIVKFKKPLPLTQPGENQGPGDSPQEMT
UCH37 inh = blocks the human deubiquitinase UCH37; Q9Y5K5; purified proteasome/UCH37, Ub-AMC cleavage fluorescence; inhibition, % (concentration not given with the values); 330,000 compounds, 0.33% hits; AID 588478;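 active = mean of two replicates above 20%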;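 note: 0% = compound-free wells with enzyme and 100% = wells lacking proteasome; stock transfer was 100 nL into about 20 µL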
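Material: Human UCH37 enzyme supplied as purified proteasome complex | Schedule: 30 min compound-proteasome preincubation then 25 min substrate reaction, room temperature | Detection: AMC fluorescence from Ub-AMC cleavage, excitation 355 nm, emission 460 nm | Benchmarks: Wells without proteasome as full block, compound-free enzyme plus substrate as uninhibited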
Vif TR-FRET = HIV-1 Vif–A3G interaction blockers – biochemical, TR-FRET, GST-Vif 1-94, biotin-A3G peptide, dose response retest, primary screen (AID 1117319). inhibition, %; hits with a dose series show IC50 in µM. TR-FRET GST-Vif / biotin-A3G peptide binding; higher % means a stronger effect; test concentration not given here; strong numbers were not always called active. 260,000 compounds, 0.57% hits;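 active = above the screen mean plus three standard deviations and confirmed in dose response; inconclusive = results disagree or hit not tested in dose response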;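 note: Vif residues 1-94 fused to GST binding biotinylated APOBEC3G peptide 110-148; 0% = full assay without inhibitor and 100% = GST in place of GST-Vif; retest series ran down from 100 µM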
Ecoli growth = inhibitors of Escherichia coli growth. OD600, 23 h; hits give low values. OD600 absorbance (test concentration not listed). 330,000 compounds, 0.21% hits;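 active = OD600 absorbance below the run mean of sample wells minus 3.6 SD, in any replicate, cut at about 0.56 in these data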;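 note: stock transfer was 300 nL into about 60 µL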
HNF4A DNA FP = change in binding of human HNF4 alpha to DNA | activity change, % at 10 µM | HNF4a-FITC DNA binding, fluorescence polarization, 1 h | 360,000 compounds, 0.3% hits; in the data active = activity change above about 30%, passing the limit was not always enough;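 note: controls were the assay level and a saturating level of protein; the project sought stronger binding though the title names inhibitors; some compounds called inactive have numbers as strong as hits; positive values seem to mean higher polarization but the record does not say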
Beta2AR agonist = activates human beta-2 adrenergic receptor causing internalization; P07550; Am2.2-beta2AR cells, FAP receptor internalization, flow cytometry; reference of the scale not given here; response, % (test concentration not listed); 340,000 compounds, 0.43% hits;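 active = response above a set limit, near 3 SD of response in nonfluorescent compounds, cut at about 42% in these data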;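 note: stock transfer was 100 nL into about 11 µL; a reference agonist was the positive control; negative values mostly stem from fluorescent compounds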
Bfl-1 A1 inh = inhibitors of the anti-apoptotic protein A1, read as caspase activation | MEF A1-2A-BIM cells, Caspase-Glo 3/7 luminescence, 3 h; percent of clofoctol response, vehicle zero | caspase activation, % (concentration not given with the values) | 330,000 compounds, 0.066% hits;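 active = over half of replicate activation scores above 10%, or exactly half above 10 with the replicate mean above 10; inconclusive = replicate mean below 10 yet half the replicates above 10; inactive = over half of replicates below 10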;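 note: wells of about 30 µL received 50 nL stock; many hits fall short of the cut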
Starred values were filed as active, the others as inactive; i = inactive; ? = inconclusive; nt = not tested or not shown. Hits appear at their usual frequency; any-hit rate near 2.1%.

SMILES	LANA-H2A inh	UCH37 inh	Vif TR-FRET	Ecoli growth	HNF4A DNA FP	Beta2AR agonist	Bfl-1 A1 inh
Cc1ccc(-c2nc(C(=O)NC3CCCCCC3)no2)cc1	-3.3	-0.6	1.2%	0.782	0.1	-4.7	-1.7
Cc1ccc(C)c(N2CCN(S(=O)(=O)c3cc4c(cc3C)NC(=O)CO4)CC2)c1	-1.6	6.2	nt	0.807	0.2	-9.7	0.2
O=C(COc1ccc(Cl)cc1)NCc1nnc2c3ccccc3c(-c3ccccc3)nn12	3.1	5.8	nt	0.738	2.9	-17.6	0.3
CCOc1ccc(CCNC(=O)c2nnc(Cc3ccc(F)cc3)o2)cc1OCC	3.1	5.2	-8.1%	0.717	1.1	-14.9	-0.1
COc1ccc(S(=O)(=O)N2CCOCC2)cc1NC(=O)COC(=O)C1=COCCO1	-0.3	6.4	nt	0.685	10.6	-1.7	0.5
O=C(NCCCN1CCOCC1)C(=O)NCC1OCCN1S(=O)(=O)c1cc(F)ccc1F (stereo not drawn)	-3.2	1.7	nt	0.682	0.3	-5.6	0.2
COc1ccc(NC(=O)Nc2nnc(-c3ccccc3SCc3ccccc3)s2)cc1	0.8	2.0	-3.2%	0.827	-2.8	2.5	-0.4
COc1ccccc1NC(=S)NCCC(c1ccccc1)c1ccccc1	8.6	1.4	nt	0.695	-1.1	0.8	0.8
Fc1cnc(N2CCOCC2)nc1N1CCOCC1	1.0	-0.8	8.4%	0.67	-2.7	-1.8	-0.1
CC(C)CN1CCNC(=O)C1CC(=O)N(C)CC1CCOCC1 (stereo not drawn)	-2.7	-18.6	nt	0.703	2.9	-6.7	0.0
COc1ccc(C(CNS(=O)(=O)c2cccc(F)c2)N2CCCC2)cc1 (stereo not drawn)	4.6	1.1	-3.3%	0.664	3.2	0.0	-1.7
CC[n+]1c(C=C2C=C(C)OC(C)=C2)sc2ccccc21	nt	22.6*	0.0%	0.634	10.7	i	nt
Cc1cccc(NC(=O)CCSc2ccccn2)c1	-1.1	0.8	5.9%	nt	1.2	-5.4	-1.7
Cc1occc1C(=O)NCCCCc1ccccc1	-0.3	1.0	6.0%	0.732	1.5	1.4	0.3
CCCCN(CC)C(=O)c1cc2c(=O)[nH]c3ccc(C)cc3c2s1	0.5	-42.7	-18.8%	0.639	0.7	-7.4	-1.4
COc1ccnc(Oc2ccc(C)cc2)c1C#N	2.3	2.2	-1.5%	0.702	-1.8	0.6	-0.3
COc1cc2c(cc1OC)C(c1cccs1)N(C(=O)C(C)C)CC2 (stereo not drawn)	-2.5	1.9	2.7%	0.745	7.5	-2.9	0.8
COc1ccc(/C=c2\sc3nc(=O)c(C)nn3c2=O)c(OC)c1	2.1	nt	-5.0%	nt	-1.6	-2.6	0.8
COc1cc(/C=C2\SC(=S)N(CCCCC(=O)O)C2=O)ccc1OS(=O)(=O)c1ccc(C)cc1	-1.3	9.1	0.5%	0.71	1.7	27.5	1.1
CCOC(=O)C1CCCN(C2CCN(Cc3nc(Cc4ccccc4)no3)CC2)C1 (stereo not drawn)	0.7	-1.7	9.3%	0.701	3.5	-2.6	0.5
O=C(NCCC(=O)N(CCc1ccccc1)Cc1ccccc1)c1ccccc1Cl	-1.1	2.1	-1.9%	0.672	-0.9	-3.2	-0.6
c1csc(-c2cc(N3CCCCC3)c3ccccc3n2)c1	2.0	-32.7	1.1%	0.695	1.4	-2.8	0.6
CC1CC(=O)NC(=O)N1Cc1ccccc1 (stereo not drawn)	nt	1.3	-3.3%	0.691	-2.8	-0.8	nt
Cc1ccnc(NS(=O)(=O)c2ccc(NS(C)(=O)=O)cc2)n1	3.3	4.2	18.7%	0.69	1.9	2.1	0.2
Cc1noc(COc2ccc(OCc3nc(C)no3)cc2)n1	-0.5	3.6	5.3%	0.672	0.0	-2.9	0.9
Continuation:
SMILES	LANA-H2A inh	UCH37 inh	Vif TR-FRET	Ecoli growth	HNF4A DNA FP	Beta2AR agonist	Bfl-1 A1 inh
COc1cccc(OC)c1NC(=O)Cn1nc(C)c2ccccc2c1=O	-1.3	3.3	nt	0.669	0.2	-2.4	0.6
O=C(Nc1nc2ccccc2[nH]1)C1CCCC1	-0.2	0.4	3.4%	0.683	0.5	-10.4	-6.1
CC1CCCCC1NC(=O)CN(C)S(=O)(=O)c1ccc2c(c1)CCC(=O)N2 (stereo not drawn)	1.6	2.6	nt	0.655	-3.7	-2.1	0.1
COc1cccc(C2c3[nH]c4ccccc4c3C[C@H]3C(=O)N(CCCO)CC(=O)N23)c1OC (stereo partly drawn)	2.9	3.1	-9.0%	0.664	1.1	-4.3	1.8
COc1ccc(S(=O)(=O)Nc2cc3c(cc2C(C)=O)OCO3)cc1	3.8	1.7	4.3%	0.682	-1.5	-10.7	0.9
Cn1c(SCc2ccc(Cl)cc2)nc(C(F)(F)F)cc1=O	0.2	1.5	2.6%	0.751	0.2	-3.3	-0.4
CC(=O)c1ccc(S(=O)(=O)Nc2cccc(-c3ccc(N4CCOCC4)nn3)c2)cc1	nt	1.3	>100µM*	0.643	-2.7	8.4	0.3
CC(=O)N1CCc2cc(S(=O)(=O)C(C)CC(=O)Nc3ccc(OC(F)(F)F)cc3)ccc21 (stereo not drawn)	8.4	2.1	0.8%	0.717	-2.0	-10.3	-2.2
CCn1c(-c2ccccc2Cl)nn(CC(=O)Nc2cc(Cl)ccc2Cl)c1=S	6.3	0.6	12.5%	0.67	-0.8	2.5	1.2
CC(C)(C)NC(=O)CSc1nnc(-c2ccccn2)n1Cc1ccccc1	-10.5	3.2	77.7%	0.708	1.9	-19.2	-0.5
NC(=S)Nc1nccc(-c2cccs2)n1	4.6	1.1	1.0%	0.694	-0.7	-16.6	-0.3
CC(=O)Nc1ccc(S(=O)(=O)Nc2nc3cc4c(cc3nc2Cl)OCCO4)cc1	0.5	-391.6	-25.0%	0.721	1.6	9.1	-0.1
CC(=O)Nc1ccc(S(=O)(=O)NCC2CCC(C(=O)NCCC(C)C)CC2)cc1 (stereo not drawn)	2.0	-4.1	1.1%	0.729	-2.1	-4.1	0.0
O=c1[nH]c2ccccc2c(O)c1SCCO	-7.7	0.4	nt	0.689	-1.5	11.6	0.0
CC1=NNC(=O)C1CC(=O)N/N=C/c1ccc(C)o1 (stereo not drawn)	2.0	nt	23.1%	nt	-2.8	28.5	1.1
O=S(=O)(CCSc1ccc(C(F)(F)F)cn1)c1ccccc1	3.6	3.0	nt	0.666	1.2	-2.6	0.6
CC(=O)N1c2ccccc2C(C)(c2ccccc2)CC1(C)C (stereo not drawn)	-0.2	1.1	29.5%	0.664	0.6	54.3*	-1.2
O=C(C1CCN(S(=O)(=O)c2cccs2)CC1)N1CCN(c2ccccc2O)CC1	-2.0	1.3	nt	0.637	4.2	0.7	0.6
CCS(=O)(=O)N1CCN=C1SCc1ccc(F)cc1	1.8	3.6	-0.6%	0.709	0.4	-6.2	-1.0
O=S(=O)(NCCOc1ccc(F)cc1)c1ccc2c(c1)OCCO2	-5.1	-0.2	-9.7%	0.673	-3.3	2.2	-1.7
CCOC(=O)CCCN1CC(O)=C(c2nc3ccccc3s2)C1=N	2.1	-0.6	9.5%	0.631	1.0	1.1	0.4
CC(=O)c1ccc(Cc2ncc(C(F)(F)F)cc2Cl)s1	0.1	5.8	-8.9%	0.772	6.5	-15.7	0.7
CC(=O)O[C@]1(C(C)=O)CC[C@H]2[C@@H]3C=C(C)C4=CC(=O)CC[C@]4(C)[C@H]3CC[C@@]21C	-26.9	3.4	?	nt	3.4	3.4	nt
O=C(NCc1ccc(/C=c2\sc3n(c2=O)CCN=3)o1)C(=O)Nc1ccccc1	0.1	nt	-17.0%	nt	nt	nt	-0.7
COc1ccc(-c2[nH]n(-c3ccc([N+](=O)[O-])cc3)c(=O)c2C=NCCN2CCNCC2)cc1	1.0	11.4	7.3%	0.688	nt	nt	-0.5
Next section:
SMILES	LANA-H2A inh	UCH37 inh	Vif TR-FRET	Ecoli growth	HNF4A DNA FP	Beta2AR agonist	Bfl-1 A1 inh
Cc1noc(/C=C/c2cccs2)c1S(=O)(=O)N1CCC(C(=O)NCCCN2CCC(C)CC2)CC1	-6.4	11.4	20.4%	0.649	4.0	1.9	0.4
COc1ccccc1/C=C/C(=O)OCC(=O)NC1CCCCCC1	-0.3	-19.1	nt	0.706	-3.5	-2.1	-0.7
O=Nc1c(O)[nH]c2ccc(F)cc12	-3.3	6.8	17.7%	0.673	1.5	7.6	0.0
O=C(Nc1nccs1)c1cccc(N2C(=O)c3cccc4c([N+](=O)[O-])ccc(c34)C2=O)c1	-2.7	-4.4	0.3%	0.823	-2.1	20.1	0.2
CSc1cnnc2ccccc12	nt	9.2	-0.1%	0.676	2.4	-3.8	nt
O=C(Nc1ccc(F)cc1F)C1CCN(C(=O)c2ccc(Br)cc2)CC1	3.6	1.2	-9.7%	0.733	0.3	0.6	0.5
CC(C)(C)c1ccc(OCCNC(=O)Cc2ccc(F)cc2)cc1	-0.8	-0.6	29.3%	0.72	-0.2	1.4	0.3
O=C(c1ccc(Oc2ccc(C(F)(F)F)cc2[N+](=O)[O-])cc1)N1CCOCC1	4.0	3.1	-4.5%	0.706	3.1	-9.2	-0.3
COCCNC(=O)CN(C(=O)Cn1nnc2ccccc21)c1cccc(C)c1C	-1.0	1.0	3.2%	0.673	0.7	-1.3	0.6
O=C(COc1ccccc1)OCc1cc2ccccc2[nH]c1=O	1.6	0.8	-4.1%	0.674	34.6	1.6	-0.4
CCCc1ccc(-c2cc(C(=O)NCCc3ccc(S(N)(=O)=O)cc3)c3ccccc3n2)cc1	4.9	-24.0	-3.0%	0.73	-6.1	-2.7	-1.5
CCCOC(=O)C1[C@H]2C(=O)N(CC3CCCO3)C[C@]23C=C[C@H]1O3 (stereo partly drawn)	6.5	-0.2	2.1%	nt	-2.4	1.4	1.4
C[N+]12CCCCC1[C@@H](CO)CCC2 (stereo partly drawn)	-1.1	0.2	nt	0.711	-1.3	6.2	0.0
COc1ccc(-c2oc(=O)c3cc(OC)c(OC)cc3c2-c2ccc3c(c2)OCO3)cc1	-4.6	2.0	nt	0.641	-3.3	-3.9	-6.5
CC1CCCCN1S(=O)(=O)c1ccc2c(c1)oc(=O)n2CC(=O)O (stereo not drawn)	2.2	6.1	29.1%	0.802	2.5	-3.3	-0.1
Cc1ccc(NC(=O)CCn2nc([N+](=O)[O-])cc2C)nc1	2.4	2.2	nt	0.692	3.9	5.1	0.7
COC(=O)/C=C/c1c(C)nc(NCc2ccccc2)nc1Cl	3.5	-68.5	2.0%	0.626	8.4	8.1	1.1
C=CCN(CC=C)CC(O)Cn1c2ccccc2c2ccccc21 (stereo not drawn)	0.4	5.1	0.1%	0.642	3.1	3.1	-0.6
O=C(CCNS(=O)(=O)c1cccs1)N1CCc2ccccc2C1	-1.9	7.2	6.5%	0.782	1.5	-0.3	1.7
Cc1c(C(=O)N(C)c2cccc(Cl)c2)cnn1-c1ccccc1	-5.7	1.4	nt	0.647	2.4	1.7	-0.1
CCC1CN(C(=O)N2CCC(C(=O)NCc3ccccc3OC)CC2)c2ccccc2O1 (stereo not drawn)	0.3	3.2	nt	0.703	-1.1	1.2	-0.4
CCC(=O)N1CCc2cc(S(=O)(=O)CCC(=O)N3CCN(c4ccccc4F)CC3)ccc21	2.0	2.3	nt	0.676	-0.9	-8.9	-0.9
CCCCOP(=O)(c1ccc(N(C)C)cc1)C(Nc1ccccc1)c1ccccc1 (stereo not drawn)	-2.3	2.8	nt	0.719	-0.3	7.2	-0.7
O=C(O)CC/C(=C\c1ccc(N2CCOCC2)c([N+](=O)[O-])c1)c1nc2ccccc2s1	nt	25.7*	-5.2%	0.696	3.3	4.3	nt
